Screens deposited in PubChem by National Center for Advancing Translational Sciences (NCATS).
GLA inh pH 4.5 – alpha-galactosidase A (human) inhibition, pH 4.5; P06280; purified enzyme, 4-MU-alpha-Gal fluorescence, pH 4.5; activity change, negative = inhibition, % at 105 µM; 230,000 tested, under 10 active; inconclusive = small, poorly fitted or top-dose-only inhibition, or a rising curve; inactive = flat fitted curve, though single readings scatter; no compound was filed as active;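 note: 0% = full activity with enzyme and -100% = basal without enzyme; dose as in the result columns while the protocol names 77 µM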
Target sequence (P06280 whole entry, looked up): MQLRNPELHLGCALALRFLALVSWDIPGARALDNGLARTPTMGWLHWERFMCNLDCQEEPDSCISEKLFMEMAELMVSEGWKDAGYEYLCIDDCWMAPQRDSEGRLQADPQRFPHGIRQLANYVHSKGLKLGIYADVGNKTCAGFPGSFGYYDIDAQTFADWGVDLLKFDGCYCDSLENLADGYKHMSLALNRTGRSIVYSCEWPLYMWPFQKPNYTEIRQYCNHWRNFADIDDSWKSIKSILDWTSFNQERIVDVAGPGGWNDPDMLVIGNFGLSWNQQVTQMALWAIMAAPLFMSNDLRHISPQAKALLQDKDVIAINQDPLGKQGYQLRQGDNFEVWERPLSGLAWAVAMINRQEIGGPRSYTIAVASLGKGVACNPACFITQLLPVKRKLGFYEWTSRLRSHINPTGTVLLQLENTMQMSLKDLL
miR-21 FLuc – raises the signal of a miR-21 reporter; Potency, µM (titrated, usually from 38.3 µM), inactives show at the top dose reporter change, positive = more light; 340,000 tested, under 10 active; HeLa miR-21 FLuc reporter, luciferase, 48 h; active = well fitted rising curve with a large enough effect; inconclusive = small, poorly fitted or top-dose-only effect; inactive = no such curve, though single readings can be large or run the other way;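 note: % of control where 0% means no effect; miR-21 action dims this reporter so a rising signal means less miR-21 action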
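Using DMEM plus 10% FBS, HeLa miR-21-FLuc cells are incubated with test compounds (final up to about 40uM) for 48 hours; firefly luciferase signal is then imaged following reagent-mediated lysis.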
Rango-impB inh – inhibitors of Rango-importin beta complex formation; Q14974; Rango CFP/YFP FRET sensor + importin beta, 45 min; Potency, µM (top dose mostly 92.2 µM), for inactives: top-dose inhibition of complex formation; 340,000 compounds, 0.031% hits; AID 540263; active = rising FRET ratio curve, often small or poorly fitted; inconclusive = mostly compound fluorescence or quenching in the first reads; inactive = flat curves in all reads;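 note: potency is the fitted concentration of half-maximal effect; 0% = DMSO wells and 100% = buffer wells lacking importin beta; nearly all actives have a fitted effect of over 15% in size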
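FRET biosensor (snurportin 1 IBB flanked by EYFP and cerulean), 50 nM, with compound 5 min, then 0.125 microM importin beta in PBS, 1 mM DTT, 0.02% Tween-20, 0.1% BSA. CFP/YFP ratio read after 45 min at room temperature; pre-read flags interference.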
Rango dissoc inh – inhibitors of RanGTP-induced Rango-importin beta complex dissociation; O95149+P62826; 340,000 compounds, 0.071% hits; Biochemical FRET Rango-importin beta, RanGTP-induced dissociation; Potency, µM (doses to about 46.1 µM), without a hit: at the top dose activity change, negative = inhibition; active means falling FRET ratio curve, often poorly fitted, with flat reads before Ran was added; inconclusive means other falling curves, or compound fluorescence or quenching; inactive means flat or rising ratio curve;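 note: potency is the fitted concentration of half-maximal effect; % of control where 0% means no effect; nearly all actives have a fitted effect of over 45% in size; -100% = wells without RanGTP and RCC1; the record marks most hits as doubtful in a second field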
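Recombinant Rango FRET biosensor (EYFP–snurportin 1 IBB–cerulean CFP10) at 0.1 uM premixed with 0.25 uM importin beta in PBS, 1 mM DTT, 0.02% Tween-20, 0.1% BSA. Compound added 5 min; RanGTP-RCC1 (0.6 uM Ran, 2 mM GTP, 0.2 uM RCC1) then triggers release, read at 45 min.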
An asterisk follows results filed as active; ? = inconclusive; . = no result given.

Structure,GLA inh pH 4.5,miR-21 FLuc,Rango-impB inh,Rango dissoc inh
CCOc1ccc(S(=O)(=O)N2CC(=O)Nc3ccccc32)cc1C#N,.,-4.4%,-0.7%,-7.2%
Cc1sc2ncnc(N3CCC(C(=O)Nc4ccc(S(N)(=O)=O)cc4)CC3)c2c1C,.,.,5.2%,-9.8%
COc1cc(C(=O)NCC2CCCCC2)cc(OC)c1OC,.,9.3%,-1.5%,5.0%
CC1(C(=O)Nc2ccc3c(c2)OCO3)CC1(Cl)Cl (centres undefined),.,-25.5%,-0.1%,-8.3%
O=C1CC(N2CCOCC2)=NN1c1ccc([N+](=O)[O-])cc1,-4.8,5.8%,3.1%,-1.5%
CC(=O)Nc1ccc(S(=O)(=O)N2CCSC2c2ccco2)cc1 (centres undefined),3.6,-3.1%,-1.8%,-7.4%
COC(=O)C1=C[C@@H](C(=O)OC)[C@@H]2C3=C(C(=O)[C@]2(C)NC(=O)c2ccccc2)[C@H](C)n2c(=O)n(-c4ccccc4)c(=O)n2[C@@H]3C1,.,.,1.2%,24.7%
CC(C)c1ccc(/C=N/NC(=O)c2nnn(-c3nonc3N)c2CN(C)C2CCCCC2)cc1,.,-3.3%,0.9%,6.1%
COc1ccc(C(C#N)N2CCC(c3ccccc3)=N2)cc1OC (centres undefined),5.8,-21.6%,?,-10.8%
Clc1ccc(CSc2nnc([C@@H]3CCCN3)o2)cc1,1.4,-9.6%,-0.4%,10.1%
CCCCn1nnc(NC(=O)CC23CC4CC(CC(C4)C2)C3)n1,-8.5,-14.0%,-1.1%,-5.2%
COc1cc2c(=O)n(Cc3ccccc3)c(=O)n(CC(=O)NCC3CCCO3)c2cc1OC (centres undefined),1.9,-2.7%,2.7%,-1.8%
O=C(CSc1nc2ccsc2c(=O)n1Cc1ccccc1)NCc1ccco1,-5.5,-4.1%,-2.2%,1.1%
CCn1c(SCC(=O)NC(C)C(C)C)nc2cc(S(=O)(=O)N3CCOCC3)ccc21 (centres undefined),.,-5.3%,-1.5%,10.0%
CCCc1cc(C(=O)Nc2cc(OC)c(Cl)cc2OC)no1,6.9,-1.0%,-3.0%,-3.7%

Of the compounds above, two have a cyano group.
Structure,GLA inh pH 4.5,miR-21 FLuc,Rango-impB inh,Rango dissoc inh
CCOc1ccc(S(=O)(=O)N2CC(=O)Nc3ccccc32)cc1C#N,.,-4.4%,-0.7%,-7.2%
COc1ccc(C(C#N)N2CCC(c3ccccc3)=N2)cc1OC (centres undefined),5.8,-21.6%,?,-10.8%

One compound at a time, from the list above. Order of values: GLA inh pH 4.5	miR-21 FLuc	Rango-impB inh	Rango dissoc inh
CC(C)c1ccc(/C=N/NC(=O)c2nnn(-c3nonc3N)c2CN(C)C2CCCCC2)cc1 is listed with .	-3.3%	0.9%	6.1%
CC1(C(=O)Nc2ccc3c(c2)OCO3)CC1(Cl)Cl (centres undefined) is listed with .	-25.5%	-0.1%	-8.3%
CC(=O)Nc1ccc(S(=O)(=O)N2CCSC2c2ccco2)cc1 (centres undefined) is listed with 3.6	-3.1%	-1.8%	-7.4%
COc1cc(C(=O)NCC2CCCCC2)cc(OC)c1OC is listed with .	9.3%	-1.5%	5.0%
CCCc1cc(C(=O)Nc2cc(OC)c(Cl)cc2OC)no1 is listed with 6.9	-1.0%	-3.0%	-3.7%

(cont.)
Structure,GLA inh pH 4.5,miR-21 FLuc,Rango-impB inh,Rango dissoc inh
O=C(CC1Sc2ccccc2NC1=O)OC(C(=O)NCCc1ccccc1)c1cccnc1 (centres undefined),-0.5,-3.0%,3.4%,-3.9%
O=C(O)CCC(=O)Nc1ccccc1C(=O)Nc1ccccc1,2.8,-0.6%,3.6%,-10.0%
CCN(CC)S(=O)(=O)c1cc(NC(=O)CN2C(=O)NC(C)(c3ccccc3)C2=O)ccc1C (centres undefined),.,15.0%,-0.8%,5.4%
Cc1csc(SCC(=O)Nc2sccc2C(N)=O)n1,-1.2,-50.0%,-0.5%,1.1%
CCN(C[C@H]1N[C@@](CC)(C(=O)OC)[C@H]2C(=O)N(C)C(=O)[C@@H]12)C(=O)Nc1ccccc1,.,.,1.2%,6.1%
CCOc1ccc(N/C(=N/c2nc(C)cc(C)n2)NC(C)=O)cc1,-15.8,-0.7%,0.0%,-0.4%
COc1cccc(CN2CCN(C(=O)c3cc(-c4ccncc4)nc4ccc(C)cc34)CC2)c1,.,.,?,-19.7%
O=C(CSc1nc2ccccc2c(=O)[nH]1)Nc1ccccc1O,.,-5.3%,4.6%,1.2%
CCc1ccccc1N1C(=O)c2ccccc2S1(=O)=O,5.9,-0.1%,4.0%,-17.5%
COC(=O)C(CCSC)NC(=O)c1cccc([N+](=O)[O-])c1 (centres undefined),-12.5,-2.7%,2.8%,-4.2%
COc1cc(S(=O)(=O)NC2CC(C)(C)NC(C)(C)C2)c(OC)cc1Cl,.,-2.4%,-2.7%,-12.8%
COCC(=O)NC1CCCCCC1,-6.5,-2.0%,4.2%,1.3%
CCOCCCN(C)C1CCN(C(=O)c2oc3ccccc3c2NC(=O)c2cccc([N+](=O)[O-])c2)CC1,.,-5.8%,-0.1%,4.2%
CNC(=O)c1ccccc1Nc1ccc(SC(F)F)cc1,.,-17.4%,0.0%,-6.4%
COc1ccc(CNC(=O)CN(Cc2ccccc2F)C(=O)c2csnn2)cc1,.,4.7%,1.2%,8.2%

Some of these compounds in order of SMILES length, smallest number first:
Structure,GLA inh pH 4.5,miR-21 FLuc,Rango-impB inh,Rango dissoc inh
CCc1ccccc1N1C(=O)c2ccccc2S1(=O)=O,5.9,-0.1%,4.0%,-17.5%
O=C(CSc1nc2ccccc2c(=O)[nH]1)Nc1ccccc1O,.,-5.3%,4.6%,1.2%
COc1ccc(CNC(=O)CN(Cc2ccccc2F)C(=O)c2csnn2)cc1,.,4.7%,1.2%,8.2%
COc1cccc(CN2CCN(C(=O)c3cc(-c4ccncc4)nc4ccc(C)cc34)CC2)c1,.,.,?,-19.7%

The list goes on:
Structure,GLA inh pH 4.5,miR-21 FLuc,Rango-impB inh,Rango dissoc inh
CCc1ccc(C(=O)/C=C/c2ccc([N+](=O)[O-])o2)cc1,-10.2,?,4.1%,-2.6%
CC(C)[C@H](NC(=O)NC1CCCC1)C(=O)O,-3.4,0.3%,-2.2%,0.0%
CC(OC(=O)CN1C(=O)NC2(CCCC2)C1=O)C(=O)c1ccccc1 (centres undefined),.,.,-0.6%,0.5%
COc1ccccc1-n1c(SCC(=O)N2CCCC2)nnc1-c1ccccc1,1.9,6.2%,-0.6%,-3.3%
CCOC(=O)N1CCN(C(=O)COc2cccc3c2CCN(CC)C3=O)CC1,-1.0,-2.7%,2.6%,-2.0%
CCOc1cc(C(=O)N2CCN(c3ccc(C(C)=O)cc3)CC2)cc(OCC)c1OCC,-10.8,-2.7%,-5.9%,-2.2%
COc1ccc(C(C)=O)cc1Cn1c(=O)cc(C)[nH]c1=O,.,-1.4%,-1.4%,18.0%
COc1cccc(/C=N/n2cncn2)c1OCC#N,-4.1,-2.2%,0.7%,21.5%
CC(Oc1ccccc1)C(=O)N/N=C/c1ccccn1 (centres undefined),-8.6,-1.8%,4.6%,-8.4%
COCCOc1ccc(C(F)(F)F)cc1Nc1nc2ccccc2o1,-0.5,-26.5%,0.4%,1.9%
COc1cccc(CN(C)C(=O)c2ccc(NC(=O)CC3SC(N4CCCC4)=NC3=O)cc2)c1OC (centres undefined),.,.,-0.2%,1.5%
O=C(NCc1nc(-c2ccc(Cl)cc2)no1)c1ccc2c(c1)OCO2,.,-11.2%,2.1%,-6.5%
COc1ccccc1CC(=O)N(Cc1ccccc1)c1ccc(C)cc1,.,9.2%,-2.8%,1.0%
O=C(COc1ccccc1[N+](=O)[O-])N(Cc1cccc(Br)c1)C1CCS(=O)(=O)C1 (centres undefined),.,-7.4%,-0.4%,-6.1%
COc1cccc(NC(=O)c2cccnn2)c1,.,-23.9%,-0.5%,1.9%
O=C(CS(=O)(=O)c1ccc(F)cc1)N1CCN(c2ccccc2)CC1,.,.,-0.6%,4.8%
CCCCn1c(N)c(N(Cc2ccccc2OC)C(=O)COc2ccccc2C#N)c(=O)[nH]c1=O,3.5,1.3%,-5.2%,-3.6%
CCC(CC)C(=O)Nc1ccc([N+](=O)[O-])cn1,-2.9,0.1%,-3.9%,9.5%
CC(C)Oc1ccc(C(=O)Nc2ccccc2N2CCCC2)cc1,1.4,-1.3%,1.6%,0.4%
COc1ccc(C(=O)N/N=C/c2ccc(OC)c(CN3CCN(c4ccc(F)cc4)CC3)c2)cc1,-8.3,-8.2%,-0.1%,11.5%
CCc1ccc(/C=N/NC(=O)c2c[nH]c3ccccc23)s1,-4.8,-53.4%,3.2%,18.0%
Cc1ccc(N(C(=O)c2csnn2)C(C(=O)NC(C)(C)C)c2ccncc2)cc1 (centres undefined),-1.6,-5.5%,5.4%,-2.4%
CCOC(=O)C(=CNc1cc(Cl)c(-c2ccco2)c(Cl)c1)C(=O)OCC,-4.7,0.6%,-2.0%,-10.8%
COc1ccccc1/C=C/c1onc(C)c1S(=O)(=O)N1CCC(C(=O)NC2CCCCCC2)CC1,.,0.5%,-3.0%,-11.3%
Cc1nnn(C23CC4CC(CC(C(=O)NN)(C4)C2)C3)n1,9.0,-1.8%,5.1%,28.6%
Cc1nnc(SCC(=O)N2CCC(C(N)=O)CC2)s1,-3.6,-4.6%,-2.0%,0.1%
CCc1ccc2nc(N(CCCN(C)C)C(=O)c3ccc(S(=O)(=O)N4CCc5ccccc5C4)cc3)sc2c1,.,-3.7%,3.7%,-14.4%
CCC(C)N(C(=O)COc1ccccc1C(=O)NCc1ccccc1)C1CCS(=O)(=O)C1 (centres undefined),.,-0.1%,-1.5%,7.1%
COc1cc2c(cc1OC)C(c1ccccc1F)NCC2 (centres undefined),.,-5.9%,-0.4%,31.2%
O=C(COC(=O)CCOc1ccccc1)Nc1ccc(Cl)cn1,8.0,-8.1%,1.8%,1.0%
Cc1ccccc1-c1cccc([C@@H]2C[C@H]3CN(Cc4cccnc4)C(=O)[C@]34CCCN24)c1,0.9,-4.6%,0.9%,14.2%
COc1cccc(-c2nn(-c3ccccc3)cc2CN2CCCO2)c1,2.3,-10.0%,-2.8%,-2.6%
Cc1ccc(C2(SCC(N)C(=O)O)c3ccccc3-c3ccccc32)cc1 (centres undefined),.,.,0.3%,-2.9%
NC(=O)N(CCC(=O)O)c1ccccc1,-6.5,-2.1%,-3.8%,0.2%
CSc1ccc(C(c2c(C)[nH][nH]c2=O)c2c(C)[nH][nH]c2=O)cc1,.,0.6%,-0.1%,-9.4%
COc1ccc(CC(=O)Nc2ccc(C)cc2O)cc1S(=O)(=O)N1CCOCC1,.,.,-0.6%,7.2%
N#Cc1nc(-c2ccc(F)cc2)oc1NCCCn1ccnc1,3.3,-12.7%,.,.
O=C(O)C/C(=C\c1ccc2c(c1)OCO2)c1nc2ccccc2s1,.,-29.8%,-3.1%,-21.4%
CCc1ccc(Nc2nnc(SCC(=O)Nc3cccnc3Cl)s2)cc1,-8.0,-28.5%,-1.9%,-20.4%
CC(=O)Nc1cccc(C(=O)NCCc2ccco2)c1,.,-53.4%,-1.3%,1.3%
CCOc1ccc(N(CC(=O)NC2CCCCCC2)S(=O)(=O)c2c(C)noc2C)cc1,-0.1,-1.5%,1.8%,-3.2%
CC(=O)N1CCc2cc(Br)cc(S(=O)(=O)NCCCN(C)Cc3ccccc3)c21,.,2.3%,-0.8%,-6.1%
CCC1(c2ccccc2)NC(=O)N(CC(=O)N(CC(=O)Nc2ccccc2C(F)(F)F)Cc2ccco2)C1=O (centres undefined),.,.,-2.7%,2.6%

Not all compounds are listed; the hit share may differ from the screen's.
